BJeLR lethal: BJeLR cell viability loss. 0.17% of 300,000 active. inhibition, % (no concentration beside the values). BJeLR (HRASV12) viability, CellTiter-Glo ATP luminescence, 48 h; reference of the scale not given here;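 active = replicate mean above 50%; inconclusive = above 50% but judged a plate artefact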;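 also: 50 nL library stock added to about 25 µL; numbers are from one replicate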
ugtP null kill: kills S. aureus RN4220 lacking UgtP. S. aureus RN4220 ugtP deletion, OD600 growth, 16 h; some inactives read as strong as hits. growth inhibition, % (concentration not given with the values). 0.54% of 330,000 active. AID 1259309;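 active = z-score under -3 and OD600 up to 0.15 on both plates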;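 also: plate controls were untreated wells for no effect and antibiotic for full effect; wells of about 80 µL received 100 nL stock; the first replicate is given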
Sa RN4220 lethal: S. aureus RN4220 growth inhibition | inhibition, % (no concentration beside the values) | OD600, 16 h | 0.33% of 330,000 active;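 active = z-score of -3 or lower and OD600 up to 0.18 on both plates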;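 also: plate controls were untreated cells for no effect and reference antibiotic for full effect; stock transfer was 100 nL into about 80 µL; one replicate is shown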
Mtb hypoxia inh: inhibitors of hypoxia-regulated fluorescent reporter in Mycobacterium tuberculosis; M. tuberculosis hypoxia-regulated fluorescent reporter, fluorescence; fluorescence inhibition, % (test concentration not listed); 0.1% of 300,000 active; AID 1159583;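 active = 35 to 45% if threefold the growth effect, above 45% if 1.5-fold the growth effect; inactive = the rest, general growth blockers included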;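 also: wells of about 50 µL received 100 nL stock; 0% = vehicle wells and 100% = reference inhibitor wells; whole bacteria with a GFP reporter of the hypoxia response; strong numbers were not always called active; many hits fall short of the cut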
PrP UTR inh: suppresses PrP 5' UTR mRNA reporter expression | cell-based PrP 5' UTR mRNA reporter, plate reader | inhibition, % (test concentration not listed) | 0.35% of 340,000 active;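 active = every replicate at 50% or more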;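 also: 0 = median of the neutral control wells; tested in H4 reporter cells; numbers are from one replicate; inactives centre near -14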
Bead autofluor: counter-screen for toxin protease inhibitors: compound fluorescence | compound autofluorescence counterscreen, microsphere flow cytometry; stronger effect = higher value | 3.1% of 360,000 active | fluorescence intensity (concentration not given with the values) | AID 624483;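 active = at least 3 SD above the mean of all compounds, about 16000 in these data; inconclusive = too few beads counted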;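 also: 100 nL of 1 mM stock went into each well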
Mtb hypoxia inh growth: second read-out of Mtb hypoxia inh, no call of its own (marks repeat the call); growth inhibition, %; measured here: M. tuberculosis growth (absorbance);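 0% = vehicle and 100% = reference antibiotic; read after six days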
Active calls of the source: *; ? = inconclusive; nt = not tested or not shown. An unsorted share of the library; overall some 3.9% were active at least once.

Results follow in this order: BJeLR lethal, ugtP null kill, Sa RN4220 lethal, Mtb hypoxia inh, Mtb hypoxia inh growth, PrP UTR inh, Bead autofluor
CCCc1cc(NCCCn2ccnc2)n2nc(C)c(-c3ccccc3)c2n1
    3, 7, -12, 4, 2, -11, 6657
CCCN(CCO)Cc1cccc(Oc2ccccc2)c1
    -1, -9, 5.6, 1, 1, -9, 10187
Cc1ccccc1Nc1nc(N)nc(COC(=O)C(NC(=O)c2ccco2)C(C)C)n1 (centres undefined)
    -1, 4, -0.9, -2, 8, -24, 9455
CCCCCCn1c2c(c(=N)c3c1CCC3)CCC2
    0, 2, 3.2, 13, 12, -12, 22477*
CCc1ccc(N2CC(C(=O)OCC(=O)NNC(=O)c3ccccc3)CC2=O)cc1 (centres undefined)
    -9, -4, 2.6, 7, 4, -20, nt
Cn1c2c(c(=O)n3ncnc13)CCCC2
    -4, 4, 2.0, -3, -7, -42, 3642
CC(C)c1nc(CNC(=O)C2CCC(=O)N(Cc3ccc(Cl)cc3)C2)no1 (centres undefined)
    -2, -3, 1.8, 0, -5, -17, 5043
NC(=O)c1nsc(C(=O)N(CC(=O)NC2CCCCC2)c2cccc(F)c2)c1N
    -4, 9, 0.2, 12, 8, -11, 4082
CCSc1nc(C2CC2)cc(-c2cccs2)c1C#N
    -6, 93*, 7.7, 6, 3, -14, 7149
N#C/C=C(/N)c1ccc(Br)cc1
    -6, 8, 5.3, nt, nt, -14, 2912
CC(C)(C)C(=O)NNC(=O)c1cc(C(C)(C)C)nn1Cc1ccccc1
    0, 5, 5.4, -3, 4, -21, 3903
CCc1c(C(=O)Nc2nnc(C3CC3)s2)csc1C
    -5, 9, 3.5, 4, 4, -47, 21291*
CCC1=C(C)CN(C(=O)NCCc2ccc(S(=O)(=O)NC(=O)NC3CCC(C)CC3)cc2)C1=O (centres undefined)
    2, -3, 8.7, 7, 14, -6, 5171
Cn1c(Cc2cccs2)nnc1SCC(=O)Nc1ccccc1F
    3, 1, 2.1, -13, 0, -7, 5237
COc1cc(C(=O)NCC2CCCN2S(=O)(=O)c2cccs2)cc(OC)c1OC (centres undefined)
    5, 8, 1.3, 1, 1, -11, 7267
COC(=O)C1=C(CS(=O)(=O)c2ccc(OC)c(OC)c2)NC(=O)NC1c1ccc(O)c(OC)c1 (centres undefined)
    -7, 3, 4.8, 7, 3, -1, 5208
COc1ccc(S(=O)(=O)N2CCCCC2)cc1NC(=O)Cc1cccs1
    nt, -5, -1.5, 4, -6, -5, 2692
CCN(CC)c1c([N+](=O)[O-])c(=O)sc2ccccc12
    -5, 12, 2.8, 0, -1, -14, 2758
COc1cccc(-c2nc(CS(=O)(=O)CC(=O)NCc3ccccc3)c(C)o2)c1
    -22, 1, 0.9, -16, -8, -27, 5370
O=C1CCCC2=C1C(c1ccco1)Nc1ccc3ccccc3c12 (centres undefined)
    10, nt, nt, nt, nt, -18, 3780
Cc1ccsc1C1C(C(=O)O)c2ccccc2C(=O)N1C (centres undefined)
    7, 3, -1.8, nt, nt, -26, 2698
C#CCSc1n[nH]c(-c2ccco2)n1
    2, 1, -1.2, 12, -2, 4, 2820
CCOC(=O)N1CCN(C(=O)COC(=O)CSc2ccc([N+](=O)[O-])cc2)CC1
    8, 9, 2.0, 0, 0, -14, 4973
CN(C(=O)COC(=O)c1ccc(=O)n(Cc2ccccc2)n1)c1ccccc1
    0, 9, 24, -1, 8, 8, 3978
O=C(c1cc2ccccc2oc1=O)N(Cc1ccc(F)cc1)C1CCS(=O)(=O)C1 (centres undefined)
    2, 5, 2.7, -2, 2, -64, 3797
CCC(=O)Nc1ccc(C(=O)CSc2nc3ccccc3cc2CC)cc1
    nt, 15, -2.6, 17, 10, -16, 11484
CCn1cc(C(=O)O)c(=O)c2cc(F)c(N3CCN(C(=S)NC(=O)c4ccccc4F)CC3)cc21
    -1, 99*, 99*, 10, 10, -30, 4911
O=C(COC(=O)/C=C/c1ccc(Cl)cc1)Nc1ccc2[nH]c(=O)[nH]c2c1
    7, -1, 6.2, 12, 4, -24, 6620
CCOc1ccc(C2CC(=O)NC3=C2C(=O)CCC3)cc1 (centres undefined)
    4, -2, -0.5, nt, nt, -1, 2770
COc1ccc(-n2c(SCC(=O)Nc3nccs3)nc3sc4c(c3c2=O)CCN(C)C4)cc1
    1, 0, 4.4, -5, 11, -13, 4038

(further entries)
Results follow in this order: BJeLR lethal, ugtP null kill, Sa RN4220 lethal, Mtb hypoxia inh, Mtb hypoxia inh growth, PrP UTR inh, Bead autofluor
Cc1ccc(-n2nnnc2CN2CCCCC2)cc1
    0, -3, 7.0, 5, 9, -13, 3677
COc1ccc2ccccc2c1/C=N/NC(=O)c1ccc([N+](=O)[O-])cc1
    -3, nt, nt, nt, nt, -12, 3669
Fc1cccc(Cc2noc(CN3CCCCC3CCc3ccccn3)n2)c1 (centres undefined)
    10, -3, 9.3, 8, 7, -14, 3213
Cc1cccc(C(=O)ON=C2CCS(=O)(=O)c3sccc32)c1
    nt, 10, 4.5, 1, -5, nt, nt
CCC(=O)NC(C)C(c1cccs1)N1CCN(Cc2ccccc2)CC1 (centres undefined)
    -6, 1, -1.9, 10, 8, -21, 5786
CN(C)C1=NCCN1CCc1ccc(F)cc1
    nt, 0, 7.4, 20, 7, -21, 4248
O=C(COC(=O)c1ccc(S(=O)(=O)N2CCCC2)cc1)Nc1ccc(F)cc1F
    5, 2, 6.5, -6, -2, -19, 3335
CCOC(=O)c1csc(N)c1-c1ccc([N+](=O)[O-])cc1
    13, 17, 1.4, 15, 1, -8, 3711
COc1ccccc1-c1nnc(NC(=O)C(C)SC2=NCCS2)s1 (centres undefined)
    7, -3, -2.6, 1, 7, -7, 5446
COc1ccc(-c2nnc(COc3ccc4ccccc4c3)o2)cc1OC
    -2, -1, 23, 4, 8, -19, 9644
COc1ccc(NS(=O)(=O)c2ccc(C)c(C(=O)N(C)CCc3ccc(OC)c(OC)c3)c2)cc1
    -4, -1, 2.3, -3, 1, 7, 6303
O=C(CCCc1ccccc1)c1ccccc1
    -4, 7, 7.0, 22, 30, -82, 5362
COc1ccc(CC2(CO)CCN(CC3=Cc4cc(Cl)ccc4OC3)CC2)cc1
    12, -8, -4.4, -1, -23, -20, 4907
CCCN(CC(=O)Nc1ccccc1OC)C(=O)c1cnc(Cl)c(Cl)c1
    -4, 12, 1.1, -1, 1, -24, 3642
C/C(=N\NC(=S)NCc1ccccc1)c1ccc(Br)cc1
    -12, nt, nt, nt, nt, -13, 3852
CCO[C@@H]1OC(C(=O)N2CCN(Cc3ccccc3)CC2)=C[C@H](c2cn(C(C)=O)c3ccccc23)[C@H]1CCCO
    3, nt, nt, nt, nt, -12, 3976
CCCCSc1nc(C)c(C(C)=O)cc1C#N
    -6, 14, 7.7, 9, 16, 2, 2537
O=C1CCCCC=CCC(CC(=O)N(CCO)Cc2ccccc2)C(=O)NC(Cc2ccccc2)CO1 (centres undefined)
    nt, 3, 3.3, 4, 10, nt, nt
Cc1onc(-c2c(F)cccc2Cl)c1C(=O)NCC1COc2ccccc2O1 (centres undefined)
    1, -1, 1.7, -3, 6, -17, 2401
COc1ccc(O)c(C2(O)C(=O)c3ccccc3C2=O)c1
    -8, 5, 1.4, 14, 11, -14, 4568
COc1cccc(N2CCN(c3ccc(S(=O)(=O)N4CCN(C)CC4)cc3[N+](=O)[O-])CC2)c1
    nt, -3, 3.9, -7, 9, -8, 3821
O=C(Cn1nnc(-c2ccccc2)n1)Nc1ccc2c(c1)OCO2
    -4, 3, -4.7, nt, nt, -21, 2082
Cc1ccccc1CN1CCN(Cc2ccccc2C(F)(F)F)CC1
    -8, 69, 3.6, 12, 7, -10, 20858*
CC(=NNC(=O)COc1ccccc1)c1ccc(O)cc1
    nt, 3, 1.6, 11, 7, nt, nt
Cc1ccc(S(=O)(=O)N(C)CC(=O)OCC(=O)NCCc2ccc(S(N)(=O)=O)cc2)cc1
    nt, -1, 3.0, -5, 2, -11, 4277
Cc1cc(C)nc(N2CCCC(C(=O)NCCC3=CCCCC3)C2)n1 (centres undefined)
    3, -3, 1.9, 4, 2, -24, 9682
CC(=O)c1cccc(NC(=S)Nc2ccc(F)cc2)c1
    -24, 13, 3.2, 12, 2, -9, ?
N#CC1=C(N)Oc2cc(O)ccc2C1c1ccncc1 (centres undefined)
    0, 9, -0.5, nt, nt, -28, 3657
CCOC(=O)c1nc(NCc2cccc(OC)c2)c2ccccc2n1
    3, 8, 3.4, -1, 9, -11, 2095
Cn1c(SCC(=O)N2CCN(C(=O)c3ccco3)CC2)nnc1-c1ccc(NS(C)(=O)=O)cc1
    -13, 3, 3.6, 13, -2, -18, 4536

Compound profiles, as listed above:
CCCN(CC(=O)Nc1ccccc1OC)C(=O)c1cnc(Cl)c(Cl)c1 is listed with BJeLR lethal = -4; ugtP null kill = 12; Sa RN4220 lethal = 1.1; Mtb hypoxia inh = -1; Mtb hypoxia inh growth = 1; PrP UTR inh = -24; Bead autofluor = 3642
Cc1cc(C)nc(N2CCCC(C(=O)NCCC3=CCCCC3)C2)n1 (centres undefined) is listed with BJeLR lethal = 3; ugtP null kill = -3; Sa RN4220 lethal = 1.9; Mtb hypoxia inh = 4; Mtb hypoxia inh growth = 2; PrP UTR inh = -24; Bead autofluor = 9682

Later entries
Results follow in this order: BJeLR lethal, ugtP null kill, Sa RN4220 lethal, Mtb hypoxia inh, Mtb hypoxia inh growth, PrP UTR inh, Bead autofluor
Clc1ccc(/C=C/c2ncc3ccccn23)cc1
    15, 5, -3.9, 17, 7, -66, 4970
COc1ccc(C(=O)OCC(=O)N2CCc3ccccc3C2)cc1OC
    nt, 8, 3.3, 10, 9, -17, 3770
CC1CC(C)CN(CCCNC(=O)Cc2c(C(=O)O)[nH]c3ccccc23)C1 (centres undefined)
    1, -9, -5.2, -4, 11, -34, 5592
CC1CCc2nc(NC(=O)c3cc(C(C)(C)C)nn3C)sc2C1 (centres undefined)
    7, -5, -2.5, -8, -11, -24, 5964
CC(C)(C)c1ccc(C(=O)NCCCNC(=O)c2cccnc2)cc1
    2, 5, 1.3, 8, 9, -27, 3586
CCOc1ccccc1N1CCN(Cc2ccc(Br)s2)CC1
    -5, 23, 7.6, 6, 12, -35, 5915
O=C(NN=Cc1ccco1)C1CCCC1
    nt, 13, 5.9, -7, -9, nt, nt
COc1ccc(OC)c(C2C(C(C)=O)=C(C)Nc3ncnn32)c1 (centres undefined)
    -2, 7, -1.0, 6, 5, -48, 3468
Cc1cc(CC(C)C)n(-c2nc3ccccc3c(=O)n2OCc2ccccc2)n1
    -10, -6, -0.1, 4, 6, -14, 23326*
COc1ccc(C)cc1S(=O)(=O)N1CCC(C(=O)N2CCOCC2)CC1
    -9, -2, -0.6, 1, 2, -12, 9488
CCc1ccc(NC(=O)NCc2ccccn2)cc1
    -8, 6, -0.2, 6, -14, -38, 5427
Cc1ccc(S(=O)(=O)NCCC(=O)N2CCN(S(=O)(=O)c3cccc(F)c3)CC2)cc1C
    -14, 1, 0.0, -1, 0, -18, 4045
O=C(O)CCC(=O)N1N=C(c2ccco2)CC1c1ccco1 (centres undefined)
    14, 6, 4.1, 3, -5, 3, nt
CC(C)(C)n1nnnc1C(c1cccc(C(F)(F)F)c1)N1CCOCC1 (centres undefined)
    12, -5, 2.7, 0, 7, -18, 12340
CN(Cc1ccccc1)S(=O)(=O)c1ccc(N2CCOCC2)nc1
    6, 5, 2.8, 6, -1, -20, 5414
CCc1c(O)nc(SCC(=O)Nc2ccccc2C)[nH]c1=O
    4, -1, 0.6, 9, 13, -8, 10997
O=C(CN1CCN(S(=O)(=O)c2ccc(F)cc2)CC1)NCC1(N2CCOCC2)CCCCC1
    nt, 0, 3.1, 21, 4, -9, 3519
O=C(COC(=O)c1cccc(F)c1)NC1CC1
    0, 7, 2.6, 4, 0, -1, 4320
COc1cc(S(=O)(=O)N2CCOCC2)ccc1NC(=O)CSc1nnc(N)s1
    1, 3, 4.1, 3, 8, -2, 2841
O=C(CCCCCCN1C(=O)c2ccccc2C1=O)NC1CCCCC1
    -1, -4, 0.4, nt, nt, 5, 3167
CCOc1ccc(CN2C(=O)c3ccccc3C2=O)cc1C(=O)O
    3, 3, 3.9, 2, -3, -16, 3853
CCCCNC(=O)NS(=O)(=O)c1ccc(NS(=O)(=O)c2ccccc2)cc1
    4, -6, 3.4, 6, 13, -14, 3954
Cc1ccc(CCNS(=O)(=O)c2cnc[nH]2)cc1
    0, 3, 5.8, -1, 7, -5, 3445
CCN(CC)CCCC(C)NC(=O)c1cc(=O)c2ccccc2o1 (centres undefined)
    17, 8, 8.5, 11, 9, -26, 3793
CCN(C(=O)C1CSC2(C)CCC(=O)N12)c1nc2c(C)cccc2s1 (centres undefined)
    -1, nt, nt, nt, nt, -22, 4745
